Assay outcomes deposited in PubChem BioAssay by Broad Institute.
ALR H2O2 inh: human ALR oxidase inhibition via reduced H2O2 | inhibition, % (no concentration beside the values) | AID 485317 | purified ALR, DTT oxidation, H2O2 HRP-luminol luminescence | P55789 | hit rate 3.8% among 290,000;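 active = mean and each replicate at 75% or more; inconclusive = only one of the two met; inactive = neither met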;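 note: stock transfer was 7.5 nL into about 7.5 µL; 0% = neutral wells and 100% = wells with inactivated enzyme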
Target sequence (P55789 whole entry, looked up): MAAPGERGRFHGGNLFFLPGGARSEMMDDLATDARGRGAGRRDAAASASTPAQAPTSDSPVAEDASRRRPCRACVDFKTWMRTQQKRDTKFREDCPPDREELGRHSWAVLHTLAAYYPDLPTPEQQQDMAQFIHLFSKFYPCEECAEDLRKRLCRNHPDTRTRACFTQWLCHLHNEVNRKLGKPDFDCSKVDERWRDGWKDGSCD
T cruzi repl: T. cruzi replication inhibition; T. cruzi beta-gal in NIH3T3, luminescence, 90 h; inhibition, % (concentration not given with the values); hit rate 1.4% among 300,000; AID 1885;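 active = mean inhibition across valid replicates above about 55%, limit read from the data; inconclusive = mean below that limit but half or more replicates reach it; inactive = mean below it, under half of replicates reach it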;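 note: signal also drops with host cell toxicity which is not excluded here; 0% = plate median of DMSO wells and 100% = zero luminescence signal; higher percent means less beta-gal luminescence so fewer parasites; stock transfer was 50 nL into about 50 µL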
RanGTP-Impb inh: disruptors of Ran-importin-beta complex formation – biochemical, FRET, CFP-Ran, YFP-importin-beta, homogeneous, primary screen; inhibition, % (concentration not given with the values); cell-free CFP-Ran/YFP-importin-beta FRET ratio; hit rate 1.1% among 300,000; AID 2216;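 active = most replicates above 15%; inconclusive = exactly half above 15%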;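 note: 0% = DMSO wells and 100% = Ran loaded with GDP instead of GTP; wells of about 40 µL received 100 nL stock; the first replicate is given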
rRNA inh HTS: inhibits bacterial ribosomal RNA function over humanized ribosomes. hit rate 1.6% among 350,000. E. coli WT GFP vs humanized-ribosome RFP mutants, fluorescence, 24 h; active compounds read low; DMSO median 0, no signal -100. AID 720706. GFP signal change (wild-type ribosome), % (test concentration not listed);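 active = significant combined selectivity score with lowered wild-type GFP, culture density cut under 30%, mutant RFP and density less affected; inactive = any of these conditions unmet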; note: one replicate is shown; some compounds called inactive have numbers as strong as hits
Beta apoptosis: beta cell apoptosis inhibition; hit rate 0.8% among 300,000; INS-1E cytokine-induced death, ATP luminescence, 48 h; percent of positive-control rescue, neutral wells zero; protection from apoptosis, % (no concentration beside the values);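 active = all replicates at 75% or more, or half of them and the mean; inconclusive = half reach 75% but not the mean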;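 note: 0% = cytokine-treated negative control wells and 100% = positive control rescue; higher means more ATP so stronger rescue from cytokine killing; wells of about 40 µL received 100 nL stock; the first replicate is given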
Calb FLC: C. albicans growth modulation with fluconazole; C. albicans CaCi-2 (fluconazole-resistant clinical isolate) + fluconazole, Alamar Blue growth, 48 h; growth inhibition, % (concentration not given with the values); hit rate 0.57% among 300,000;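 active = most replicates above 75%; inconclusive = exactly half above 75%; inactive = most below 75%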;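 note: all wells also contain fluconazole at 8 µg/ml as a sub-toxic cotreatment; 0% = median of DMSO wells and 100% = median of geldanamycin control wells; wells of about 8 µL received 7.5 nL stock; the first replicate is given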
FGF22 binding: FGF22 (human) thermal shift binding | hit rate 1.5% among 340,000 | calls only at 9.99 µM | Q9HCT0 | recombinant FGF22 thermal shift, SYPRO orange fluorescence; percent of sucrose octasulfate shift, DMSO zero;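 active = melting point raised past a set limit in the mean and every replicate; inconclusive = no clear call; three in four hits are not shown here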
Target sequence (Q9HCT0 whole entry, looked up): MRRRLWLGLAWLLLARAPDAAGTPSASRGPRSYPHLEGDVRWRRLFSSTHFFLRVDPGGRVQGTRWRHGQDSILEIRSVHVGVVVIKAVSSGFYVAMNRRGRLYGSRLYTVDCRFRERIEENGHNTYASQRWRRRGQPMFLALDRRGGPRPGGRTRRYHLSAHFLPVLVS
MLL AF4-AF9 inh: MLL-AF4/AF9 protein interaction inhibition; AID 651704; AlphaScreen, biotin-AF4 peptide binding to FLAG-AF9; hit rate 0.47% among 350,000; inhibition, % at 10 µM;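 active = every replicate reaching a set inhibition limit, whatever the replicate mean, cut at about 25% in these data; inconclusive = mean inhibition reaches that limit but some replicates miss it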;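 note: 0% = plate neutral control median and 100% = total signal loss; the record names both 10 and 1 µM as test concentration; the first replicate is given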
Target sequence (P42568 whole entry, looked up): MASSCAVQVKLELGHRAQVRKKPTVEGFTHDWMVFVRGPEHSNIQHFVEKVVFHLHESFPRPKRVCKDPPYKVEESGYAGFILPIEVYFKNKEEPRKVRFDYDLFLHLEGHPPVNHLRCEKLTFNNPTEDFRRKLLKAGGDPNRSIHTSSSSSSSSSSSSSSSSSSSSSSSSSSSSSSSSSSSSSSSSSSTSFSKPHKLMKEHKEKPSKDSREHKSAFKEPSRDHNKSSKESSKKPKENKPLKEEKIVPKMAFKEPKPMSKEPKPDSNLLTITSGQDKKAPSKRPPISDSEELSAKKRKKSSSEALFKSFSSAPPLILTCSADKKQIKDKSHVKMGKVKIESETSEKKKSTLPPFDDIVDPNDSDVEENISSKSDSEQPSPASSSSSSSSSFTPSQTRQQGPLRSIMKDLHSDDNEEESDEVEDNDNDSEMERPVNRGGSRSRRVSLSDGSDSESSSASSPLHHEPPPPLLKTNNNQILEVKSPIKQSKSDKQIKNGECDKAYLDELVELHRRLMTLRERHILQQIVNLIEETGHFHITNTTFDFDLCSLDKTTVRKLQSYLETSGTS
rRNA inh HTS OD600: recorded beside rRNA inh HTS, whose call it bears; OD600 change, %; measured here: OD600 growth;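 optical density of the mix in the first replicate; 0 = DMSO median and -100 = no signal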
rRNA inh HTS RFP: second read-out of rRNA inh HTS, no call of its own (marks repeat the call); RFP signal change, %; measured here: RFP humanized mutant strains;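 first replicate; 0 = DMSO median and -100 = no signal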
* = called active by the depositor; i = inactive; u = inconclusive; x = no result given. These rows are one share of the data (hit frequency here may not be typical).

Values run as follows: ALR H2O2 inh, T cruzi repl, RanGTP-Impb inh, rRNA inh HTS, rRNA inh HTS OD600, rRNA inh HTS RFP, Beta apoptosis, Calb FLC, FGF22 binding, MLL AF4-AF9 inh
O=S(=O)(NCC1OCCc2ccccc21)c1ccccc1 (stereo not drawn)
→ 4.9, -11.8, -0.7, x, x, x, 5.4, -3.5, x, x
CC(=O)NC(Cc1ccccc1)C(=O)OCC(=O)c1ccc(F)cc1 (stereo not drawn)
→ -7.6, -15.1, 1.9, x, x, x, -8.5, 3.2, x, x
CC(C)C[C@H](NC(=O)c1nc[nH]c1C(=O)NC1CCNCC1)C(=O)OC(C)(C)C
→ -16.7, -6.1, 2.6, 2.9, -2.0, -0.2, -9.3, 14.6, i, -10.7
Cc1cc(C(=O)NCCCN2CC(C)CC(C)C2)n(-c2ccccc2)n1 (stereo not drawn)
→ x, -7.1, u, -0.3, 6.2, -1.7, -3.5, -2.1, i, -5.4
Cc1ccc2nc(SCC(=O)c3ccccc3)nc(=O)n2c1
→ 65.5, 2.6, u, 3.0, 8.7, 0.5, 0.4, 3.5, i, -0.3
CC(=O)Nc1ccc(NC(=O)C(C)n2nc([N+](=O)[O-])c(Br)c2C)cc1 (stereo not drawn)
→ x, 49.8, -2.5, 4.7, 1.1, -8.1, -4.2, -19.6, i, 3.0
CCC(Sc1nc(-c2ccccc2)c(-c2ccccc2)[nH]1)C(=O)O (stereo not drawn)
→ 82.0*, -5.2, 5.5, -11.7, -16.7, 3.8, -2.1, 9.1, i, -1.3
Cc1csc(=O)n1CCC(=O)N(C)Cc1c(F)cccc1Cl
→ -3.8, x, x, -1.7, 4.1, 3.6, 4.0, x, i, -1.6
CCCS(=O)(=O)C/C(N)=N/OC(=O)c1ccccc1Cl
→ -2.0, -0.7, 4.2, 3.9, 2.8, 0.3, -3.4, 15.7, i, -0.3
CCSc1nnc(NC(=O)c2ccc(S(=O)(=O)N(C)C)cc2)s1
→ -1.2, 3.5, -15.6, 5.7, 4.0, -3.0, -2.7, 1.2, i, -1.3
COc1ccc(CCC(=O)NCC2CCCCC2)cc1OC
→ 0.1, -8.7, -1.2, 6.3, 14.9, 8.3, -0.6, 0.8, i, 1.6
Cc1cc(NC(=O)c2cccs2)ncc1NC(=O)C(C)C
→ -0.9, -31.1, 0.2, 10.7, 8.6, 0.5, 7.1, -9.7, i, -0.9
COc1cc(S(=O)(=O)N(Cc2cccs2)CC2CCCO2)ccc1-n1cnnn1 (stereo not drawn)
→ -3.0, 10.3, 7.3, -4.9, -3.4, -3.3, -3.7, 21.7, i, 1.3
O=C(/C=C/c1cccc(F)c1)OCC(=O)N1CCCc2ccccc21
→ -28.7, -5.3, 6.4, -6.3, -14.0, -3.2, -2.9, -1.0, i, -18.1
COc1cccc(CNC(=O)c2cccnc2Sc2ccccc2)c1
→ -7.9, -11.4, 1.0, 2.9, 4.8, -0.6, -3.2, 15.0, i, -3.3
CN1CCC[C@H]1CCNC(=O)c1c(-c2ccsc2)sc2ccccc12
→ -4.1, x, x, 7.4, -1.5, -7.7, -0.4, x, i, x
COc1ccccc1NS(=O)(=O)c1cccc2nsnc12
→ 0.5, 6.0, -4.6, 1.0, -3.0, -0.8, -5.0, 2.5, i, 7.3
COc1ccc(S(=O)(=O)NCCSc2ccc(Cl)cc2)cc1OC
→ -15.2, 9.1, 0.5, -37.9*, -22.7*, -3.6*, x, 0.9, i, 1.1
Oc1ccccc1Nc1nc(NCC2CCCO2)c2ccccc2n1 (stereo not drawn)
→ 98.8*, 15.0, 1.4, x, x, x, x, -0.7, x, x
C/C(=N\O)c1c(C)c2ccccc2n1C
→ -3.6, -1.8, 3.4, x, x, x, -3.9, 15.1, x, x

An excerpt from above in order of molecular weight, smallest number first.
Values run as follows: ALR H2O2 inh, T cruzi repl, RanGTP-Impb inh, rRNA inh HTS, rRNA inh HTS OD600, rRNA inh HTS RFP, Beta apoptosis, Calb FLC, FGF22 binding, MLL AF4-AF9 inh
O=S(=O)(NCC1OCCc2ccccc21)c1ccccc1 (stereo not drawn)
→ 4.9, -11.8, -0.7, x, x, x, 5.4, -3.5, x, x
COc1ccccc1NS(=O)(=O)c1cccc2nsnc12
→ 0.5, 6.0, -4.6, 1.0, -3.0, -0.8, -5.0, 2.5, i, 7.3
Oc1ccccc1Nc1nc(NCC2CCCO2)c2ccccc2n1 (stereo not drawn)
→ 98.8*, 15.0, 1.4, x, x, x, x, -0.7, x, x
O=C(/C=C/c1cccc(F)c1)OCC(=O)N1CCCc2ccccc21
→ -28.7, -5.3, 6.4, -6.3, -14.0, -3.2, -2.9, -1.0, i, -18.1

Next results follow.
Values run as follows: ALR H2O2 inh, T cruzi repl, RanGTP-Impb inh, rRNA inh HTS, rRNA inh HTS OD600, rRNA inh HTS RFP, Beta apoptosis, Calb FLC, FGF22 binding, MLL AF4-AF9 inh
C/C(=N\NC(=S)NCc1ccccc1)c1ccc(Cl)cc1
→ -2.0, 1.2, -3.5, x, x, x, -8.1, -0.2, x, x
Cc1ccc(N2/C(=N/c3nc(C)cc(C)n3)NC(=O)CC2C(=O)O)cc1 (stereo not drawn)
→ -4.8, -15.2, -1.1, x, x, x, 2.0, 10.4, x, x
Cc1cc(C)c(NC(=O)c2oc3ccccc3c2COc2ccccc2)c(C)c1
→ 1.1, 38.3, 0.2, 12.2, 11.8, 3.9, x, -18.0, i, -0.2
Cc1ccc(OCC(=O)N(C)CC(=O)Nc2cccc(F)c2)cc1
→ 1.3, -4.5, -0.1, 6.5, 6.4, 1.5, -5.4, -1.3, i, -0.4
CC(Sc1nnc(Nc2ccccc2F)s1)C(=O)NC1CC1 (stereo not drawn)
→ 1.3, x, x, 14.2, 1.8, 4.5, 10.2, x, i, -1.3
COc1ccc(N(CC(=O)O)S(=O)(=O)c2ccccc2[N+](=O)[O-])c(OC)c1
→ -6.9, -4.1, -1.0, 8.8, 12.3, -1.4, -2.7, 10.0, i, -0.8
CCOC(=O)c1nn(-c2ccccc2C)c(=O)cc1OCC(=O)N1CCN(c2ccccc2)CC1
→ x, -7.2, -0.8, 5.9, 2.3, 2.6, 0.8, -4.9, i, 0.0
O=C(NC1CCCc2c1cnn2-c1ccc(F)cc1F)c1ccccn1 (stereo not drawn)
→ -1.7, -1.1, 1.5, 2.1, -14.6, -1.8, -4.2, u, i, 6.1
CC1(C)CC(=O)C(C(C2=C(O)CC(C)(C)CC2=O)c2ccc(Cl)c([N+](=O)[O-])c2)C(=O)C1 (stereo not drawn)
→ 28.1, -7.7, 0.6, 19.5, 20.1, -0.4, -3.3, 6.4, i, -1.2
Cc1occc1C(=O)Nc1ccccc1NC(=O)c1ccoc1C
→ 47.5, -3.4, -2.9, x, x, x, -2.9, -3.2, x, x
COc1cc(/C=C2\CCC/C(=C\c3ccc(O)c(OC)c3)C2=O)ccc1O
→ x, -9.6, -13.1, -12.2, -17.5, 3.8, -24.3, -7.3, i, 7.7
CNC(=O)CN(c1cccc2ccccc12)S(C)(=O)=O
→ 0.7, -16.0, 0.9, x, x, x, -2.0, 6.3, x, x
CCCCc1cc(=O)oc2cc(OC(C)C(=O)NCc3ccccn3)c(Cl)cc12 (stereo not drawn)
→ -0.9, 10.8, -1.0, 2.1, 3.0, -3.3, 9.1, -16.3, i, -3.2
COc1cc([C@@H]2[C@H]3CNCC=C3C(C#N)=C(N)C2(C#N)C#N)ccc1OC(C)C
→ -7.6, 31.5, 62.7*, x, x, x, -5.5, 7.8, x, x
CCN(CC)S(=O)(=O)c1ccc(N2CCCC2)c(NS(=O)(=O)c2ccc([N+](=O)[O-])cc2)c1
→ x, 9.4, -2.1, 2.8, 4.1, -6.4, 4.3, -6.0, i, 3.9
CC(C)N1CCN(C2CSCCSC2)CC1CCO (stereo not drawn)
→ x, 16.9, 1.6, 13.2, 11.9, 2.8, -2.9, u, x, 1.0
Cc1cccn2c(=O)nc(SCC(=O)N3CCN(c4ccccc4)CC3)nc12
→ 85.6*, 4.2, 6.0, 5.9, 0.3, 4.8, x, 4.6, i, -0.1
COc1cccc(NC(=O)Cc2csc(NC(=O)Nc3ccccc3OC)n2)c1
→ x, 6.2, 1.7, -26.1, -33.3, -3.0, x, -4.0, i, 1.6
CCCN1C(=O)C2(C(C(=O)c3ccc(C)o3)=C(O)C(=O)N2CCCOC)c2ccccc21 (stereo not drawn)
→ x, -3.5, 0.8, -1.5, -3.6, -0.2, x, -1.8, i, -0.9
FC(F)(F)c1ccccc1CN1CCCC(N2CCN(c3ccccc3)CC2)C1 (stereo not drawn)
→ x, 44.8, 0.6, -28.8, -33.4, -5.0, -2.5, -8.3, i, 12.7

Entries of single compounds, quoted from the list. Screens in order: ALR H2O2 inh	T cruzi repl	RanGTP-Impb inh	rRNA inh HTS	rRNA inh HTS OD600	rRNA inh HTS RFP	Beta apoptosis	Calb FLC	FGF22 binding	MLL AF4-AF9 inh
Entry for CCCCc1cc(=O)oc2cc(OC(C)C(=O)NCc3ccccn3)c(Cl)cc12 (stereo not drawn) = -0.9	10.8	-1.0	2.1	3.0	-3.3	9.1	-16.3	i	-3.2
Entry for COc1cccc(NC(=O)Cc2csc(NC(=O)Nc3ccccc3OC)n2)c1 = x	6.2	1.7	-26.1	-33.3	-3.0	x	-4.0	i	1.6

(further entries)
Values run as follows: ALR H2O2 inh, T cruzi repl, RanGTP-Impb inh, rRNA inh HTS, rRNA inh HTS OD600, rRNA inh HTS RFP, Beta apoptosis, Calb FLC, FGF22 binding, MLL AF4-AF9 inh
COCC(=O)Nc1ccc(C(=O)Nc2ccccc2Cl)cc1
→ 0.0, -10.9, -5.1, x, x, x, 0.2, 6.6, x, x
Cc1ccc(/C=N/NC(=O)c2nnn(-c3nonc3N)c2CSc2ccccc2)cc1
→ x, -7.1, 4.7, -1.8, 7.2, 4.1, x, 1.4, i, -3.1
Cc1ccc(C2=NN(C(=O)c3cccs3)C(c3ccccc3O)C2)cc1 (stereo not drawn)
→ 5.0, 64.0*, 4.0, 20.7, 21.0, 4.1, 8.6, 25.8, i, -0.4
CN(C)CCCN1CC(C(=O)O)CC1=O (stereo not drawn)
→ -7.0, -17.1, 1.4, x, x, x, -8.0, -10.6, x, x
O=C(Cn1ccc(C(F)(F)F)n1)Nc1cccc(S(=O)(=O)N2CCCCC2)c1
→ x, 9.2, 1.0, -7.2, -10.7, 0.3, 1.9, 1.6, i, 0.3
CCc1ccccc1-n1c(SCC(=O)c2c(N)n(C3CC3)c(=O)[nH]c2=O)nnc1N1CCOCC1
→ -0.7, x, x, 2.5, -10.4, 1.4, -1.2, x, i, -4.1
